Bioassay records from PubChem.
Vaccinia pol inh = blocks vaccinia virus processive DNA synthesis | normalized absorbance, % (test concentration not listed) | in vitro processive DNA synthesis, absorbance read-out; hits give low values; some inactives read as strong as hits | hit rate 0.94% among 46,000;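 active = replicate mean up to 90% and picked by the depositor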;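 also: 100% = median of the test wells of a plate; 100 nL library stock went into each well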
* marks the source's active call; other numbers are inactive results; & = joins results of further samples. These rows are one share of the data; the hit share may differ from the screen's.

SMILES	Vaccinia pol inh
CC(NC(=O)C(NC(=O)OCc1ccccc1)C(C)C)C(=O)NC(CC(=O)O)C(=O)OC(F)F (stereo unspecified)	99
CN1C/C(=C\c2cccs2)C(=O)/C(=C/c2cccs2)C1	92&102
Cc1[nH]n(-c2ccccc2)c(=O)c1/C=C1\C=NN=C1c1ccccc1	100
CC(=O)Nc1cccc(NC(=O)c2c(F)c(F)c(F)c(F)c2F)c1	106
C=CCN1C(=O)C(Cc2ccc(O)cc2)NC1=S (stereo unspecified)	100
CCN(CC)Cc1cc(N=O)c2cccnc2c1O	70
N#Cc1cccc(NC(=S)Nc2ccccc2)c1	100
O=C(NCc1ccccc1)c1ccc2ccccc2n1	86
N#CCCn1nc(-c2ccc(F)cc2)ccc1=O	108
CC(C)OC(=O)/C=C/c1cn(-c2ccccc2)nc1-c1cccs1	101
Cc1ccc(S(=O)(=O)N2CCCC2C(=O)Nn2cnnc2)cc1 (stereo unspecified)	107
Cn1ccnc1SCC(=O)NC1CCCCC1	96
Clc1ccc(-c2cnc(Oc3ccccc3)nc2)cc1	90
O=C(Cc1ccccc1)NCCCc1nc2ccccc2[nH]1	102
COc1ccccc1NC(=O)c1ccc(S(=O)(=O)N(C)C)cc1	97
C=C(C)C(=O)Oc1cccc(N2C(=O)CCC2=O)c1	112
Cc1cc(C)n(C(CC(=O)N2CCc3ccccc3C2)C(=O)O)n1 (stereo unspecified)	100
CCN1CN=C(SCc2c(C)c(C)c(C)c(C)c2C)NC1	78
CC(C)CC1C(C#N)=C(N)OC2=C1C(=O)CCC2 (stereo unspecified)	101
COc1ccc(C2=NN(C(=O)c3ccccc3O)C(O)(C(F)(F)F)C2)cc1 (stereo unspecified)	100
C[n+]1ccc(/C=C/c2cccs2)cc1	100
CCCCS(=O)(=O)NC1=NCN(Cc2ccco2)CN1	100
O=C(Nc1ccccc1)N1CCN(c2nnc(-c3ccccc3)c3ccccc23)CC1	108
CN(Cc1ccccc1)C(=O)C1CCCN(Cc2ccc(Cl)cc2)C1 (stereo unspecified)	100
COc1ccc2c(c1)-c1c(ssc1=S)C(C)(C)N2	100
Cc1ccc(C=Nc2ccc(N=Cc3ccc(C)s3)cc2)s1	100
Cc1ccc(S(=O)(=O)N(c2nc(NC(C)C)nc(NC(C)C)n2)n2cnnc2)cc1	100
CCOc1ccc(CCNC(=O)C(C)N2C(=O)CC(C)(C)Sc3ccccc32)cc1 (stereo unspecified)	102
CCOc1ccc(CN(CCc2ccc3c(c2)OCO3)Cc2ccccc2)cc1	100
Cc1c(C(=O)NC2CCCCC2)c(C)n2cn[nH]c(=O)c12	105
CN(C)CCCNc1oc(-c2ccc(F)cc2)nc1C#N	100
CCOc1ccc(-n2c(=O)c3cc4c(=O)n(-c5ccc(OCC)cc5)c(=O)c4cc3c2=O)cc1	103
O=C1N=C(N2CCCC2)S/C1=C\c1ccccc1O	100
CCOC(=O)c1cc(NC(=O)c2ccccc2)c(=O)n2c1oc1ccccc12	96
COc1ccc(S(=O)(=O)N2CCc3ccccc32)cc1C(=O)O	86
CC1(C)CC(=O)CC(C)(C)N1OC(=O)c1ccccn1	100
COc1ccc(-c2cc(C(=O)N(C)C)c3ccccc3n2)cc1	100
Cc1ccc2cc(CCNC(=O)/C=C\c3ccc4c(c3)OCO4)c(=O)[nH]c2c1	101
Cc1nc2ccccc2n1CC(N)=O	104
S=C(Nc1ccccc1)Nc1nc2ccccc2n1Cc1ccc(Cl)cc1	97
O=C1c2ccccc2NC(c2ccccc2)N1CCCN1CCOCC1 (stereo unspecified)	100
COC(=O)c1ccc(Cl)c(N)c1	101
CCCc1nnc(NC(=O)C(CC)Sc2nnc3c(n2)[nH]c2ccccc23)s1 (stereo unspecified)	97
CN[C@@H](C)[C@@H](O)c1ccccc1	100
O=Nc1cc(CN2CCOCC2)c(O)c2ncccc12	103

Rewritten as comma-separated lines: part of the list above.
Compound,Vaccinia pol inh
COc1ccc(C2=NN(C(=O)c3ccccc3O)C(O)(C(F)(F)F)C2)cc1 (stereo unspecified),100
C[n+]1ccc(/C=C/c2cccs2)cc1,100
CCCCS(=O)(=O)NC1=NCN(Cc2ccco2)CN1,100
O=C(Nc1ccccc1)N1CCN(c2nnc(-c3ccccc3)c3ccccc23)CC1,108
CN(Cc1ccccc1)C(=O)C1CCCN(Cc2ccc(Cl)cc2)C1 (stereo unspecified),100
COc1ccc2c(c1)-c1c(ssc1=S)C(C)(C)N2,100
Cc1ccc(C=Nc2ccc(N=Cc3ccc(C)s3)cc2)s1,100
Cc1ccc(S(=O)(=O)N(c2nc(NC(C)C)nc(NC(C)C)n2)n2cnnc2)cc1,100
CCOc1ccc(CCNC(=O)C(C)N2C(=O)CC(C)(C)Sc3ccccc32)cc1 (stereo unspecified),102
CCOc1ccc(CN(CCc2ccc3c(c2)OCO3)Cc2ccccc2)cc1,100
Cc1c(C(=O)NC2CCCCC2)c(C)n2cn[nH]c(=O)c12,105
CN(C)CCCNc1oc(-c2ccc(F)cc2)nc1C#N,100
CCOc1ccc(-n2c(=O)c3cc4c(=O)n(-c5ccc(OCC)cc5)c(=O)c4cc3c2=O)cc1,103
O=C1N=C(N2CCCC2)S/C1=C\c1ccccc1O,100
CCOC(=O)c1cc(NC(=O)c2ccccc2)c(=O)n2c1oc1ccccc12,96
COc1ccc(S(=O)(=O)N2CCc3ccccc32)cc1C(=O)O,86
CC1(C)CC(=O)CC(C)(C)N1OC(=O)c1ccccn1,100
COc1ccc(-c2cc(C(=O)N(C)C)c3ccccc3n2)cc1,100
Cc1ccc2cc(CCNC(=O)/C=C\c3ccc4c(c3)OCO4)c(=O)[nH]c2c1,101
Cc1nc2ccccc2n1CC(N)=O,104
S=C(Nc1ccccc1)Nc1nc2ccccc2n1Cc1ccc(Cl)cc1,97

(listing goes on)
SMILES	Vaccinia pol inh
OC1(c2ccc(-c3ccccc3)cc2)COc2ccccc2O1 (stereo unspecified)	99
CN(C)c1ccc(C(N2CCOCC2)P(=O)(c2ccccc2)c2ccccc2)cc1 (stereo unspecified)	101
CCC(C)NC(=O)C1c2ccccc2C(=O)N2CCc3ccccc3C12 (stereo unspecified)	102
COC(=O)c1c(NC(=O)C(C)Oc2ccccc2)sc2c1-c1ccccc1CC2 (stereo unspecified)	96
CCN(CC)C(=O)Cn1cc(SCC(=O)N2CCCCC2)c2ccccc21	101
O=C(C1COc2ccccc2O1)N1CCc2ccccc2C1 (stereo unspecified)	111
Cc1cccc(C)c1N1CCc2cn[nH]c21	95
Cc1cc(C)c(-n2c(O)c(C=Nc3cccc(O)c3)c(=O)[nH]c2=O)c(C)c1	100
O=S(=O)(Nc1cc(Sc2cccc3cccnc23)c(O)c2ccccc12)c1ccc(Cl)cc1	96
CCn1c(=O)c2cc(C(=O)NCC3CCCO3)sc2c2ccccc21 (stereo unspecified)	105
COC(=O)c1c(NC(NC(C)=O)(C(F)(F)F)C(F)(F)F)sc2c1CCN(C)C2	100
Cc1ccc(C(=O)C(C)Sc2nc3ccccc3o2)cc1 (stereo unspecified)	98
COc1ccc(NC(=O)C2CCCCC2)cc1OC1CCCC1	101
O=C1c2cccc3cccc(c23)N1Cc1ccc(F)cc1Cl	100
CCOC(=O)Cn1c(=O)oc2cc(S(=O)(=O)N(C)CCC#N)ccc21	100
O=C(Nc1cccc(NC(=O)C2COc3ccccc3O2)c1)c1ccccc1 (stereo unspecified)	93
C[C@]12CCC(=O)C=C1CCC1C2CC[C@@]2(C)C1CC[C@@H]2O (stereo partly specified)	100
Cc1nn(-c2ccccc2)c2[nH]c(=O)c(C#N)c(-c3cccs3)c12	100
Cc1cc[n+](CCOc2ccc(N)cc2)cc1	100
O=C(NCC1CCCO1)c1ccc2c(c1)N(Cc1ccc(F)cc1)C(=O)/C(=C/c1ccccc1)S2 (stereo unspecified)	88
CCOc1ccc(OCC)c(S(=O)(=O)N(C)C2CCCCC2)c1	100
CC(C)(C)c1ccc(C(=O)OCCN2CCCC2=O)cc1	102
Cn1nc(C(=O)N2CCCN(Cc3ccccc3Cl)C2)c2c1-c1ccccc1OC2	100
Cc1ccc(/C=C2/SC(=S)N(c3ccc(S(N)(=O)=O)cc3)C2=O)o1	101
CCC(C#CCN1CCOCC1)OC(C)=O (stereo unspecified)	100
NC(=O)CSc1nc2c(sc3ccccc32)c(=O)n1-c1ccccc1	99
Cc1ccc(C(=O)NC2CC2)cc1N1CCCC1=O	108
CCSC(=S)NC1CCS(=O)(=O)C1 (stereo unspecified)	100
COc1cccc(C(=O)CCN2CCC(c3ccccc3)C2)c1 (stereo unspecified)	100
CC(=O)NCc1nc2ccccc2n1Cc1ccccc1C	101
O=C(Nc1ccccc1)Oc1ccccc1	98
O=C(CSc1ccccn1)N1CCCc2ccccc21	93
CCC(=O)c1c[nH]c(C(=O)NCc2cccc(C(F)(F)F)c2)c1	101
CC(=O)Nc1ccc(S(=O)(=O)N2CCN=C2SCc2c(F)cccc2Cl)cc1	102
COc1cc(C(=O)NCc2ccc(OCCN(C)C)cc2)cc(OC)c1OC	101
OC(CN1CCC(Cc2ccccc2)CC1)CN1CCN(c2cccc(C(F)(F)F)c2)CC1 (stereo unspecified)	105
O=C(OC1=CC(=O)c2cccc3cccc1c23)c1ccccc1	101
O=c1oc2ccccc2c(O)c1C=Nc1ccc(C(F)(F)F)cc1	114
CCOC(=O)/C(=N/O)C1=NN=C(N)SC1	96
CNC(=O)CCc1cn(Cc2ccccc2Cl)c2ccccc12	91
CCOC(=O)c1[nH]cnc1C(=O)Nc1ccc(C)cc1	98
CC(C)(C)c1ccc(C(=O)n2cnnc2N)cc1	93
CCn1c(=O)cc(OCC(=O)N(C)c2ccccc2F)c2ccccc21	99
N=C(N)SCc1nc(N)nc(N2CCCCC2)n1	98
CCc1cccc(C(C)C)c1NS(=O)(=O)c1ccc(C)cc1	100
Cc1ccc(NCC(O)COc2ccc(OCc3ccccc3)cc2)cc1 (stereo unspecified)	96
c1ccc(C2=NC2c2ccccc2)cc1 (stereo unspecified)	98
CN(C)C(=O)Nc1ccccc1	101
O=C(CC(NCC1CCCO1)C(=O)O)Nc1cccc(Cl)c1Cl (stereo unspecified)	102
O=C(OCc1nc2ccccc2s1)c1cccs1	103
CCc1ccccc1Nc1cc(C(=O)NCc2cccnc2)c2ccccc2n1	102
CCOC(=O)c1ccc2[nH]c(C(=O)OCC)c(CCC(=O)O)c2c1	99
Cc1ccc2c(c1)c1nc3ccccc3nc1n2Cc1ccccc1	100
COC(=O)Cn1c(SCc2ccccc2)nc2ccccc21	92
CCC(=O)n1cnc2ccccc21	101
CCSc1nc2c(c(=O)[nH]1)C(c1ccncc1)C(C(=O)OC)=C(C)N2 (stereo unspecified)	101
NS(=O)(=O)c1cc2c(cc1C(F)(F)F)NCNS2(=O)=O	100
COC(=O)c1ccc2c(c1)C(=O)/C(=C/c1cn(-c3ccccc3)nc1-c1ccccc1)O2	92
Cc1noc(C(F)(F)F)c1-c1nnc(-c2cccc(C(F)(F)F)c2)o1	99
Cc1cc(C(=O)OCC(N)=O)c(C)o1	101

(continued)
SMILES	Vaccinia pol inh
O=c1oc2ccccc2c2c1ncn2CCN1CCCC1	100
NCCN1C(=O)c2[nH]nc(-c3ccccc3)c2C1c1ccccc1 (stereo unspecified)	96
O=C(CCCn1c(=O)[nH]c2cc(Cl)ccc2c1=O)NC1CCCCCCC1	102
CCOC(=O)CN(C)c1nc(-c2ccccc2)cs1	99
FC(F)(F)c1cc(/C=C\c2noc(-c3ccccc3CN3CCCC3)n2)cc(C(F)(F)F)c1	86
CC(C)CCNC(=O)c1cc(Sc2ccc(F)cc2)nc2ccccc12	91
C=C(C)CC(N)(CC(=C)C)c1ccncc1	100
Cc1nn(CCC#N)c2[nH]c(=O)cc(C(F)(F)F)c12	94
O=C(NCc1ccco1)c1oc(=O)c2ccccc2c1-c1ccccc1	98
CNc1ccc(S(=O)(=O)c2ccc(NC)cc2)cc1	98
CC1(C)Cc2cccc(C(=O)N3CCC(C(=O)c4ccc(Cl)cc4)CC3)c2O1	104
COc1ccc(NC(=O)CC(=O)Nc2ccc(OC)cc2)cc1	100
CSc1n[nH]c(NC(=O)c2ccccc2Cl)c1S(=O)(=O)c1ccc(Cl)cc1	104
CCO/C([O-])=N/c1c[n+](N2CCOCC2)no1	100
O=C(CCSc1nnc2ccccn12)Nc1cccc(-c2nc3ccccc3s2)c1	100
Cn1cc(C(O)C(F)(F)F)c2ccccc21 (stereo unspecified)	114
O=C(COC(=O)c1ccccn1)NCc1ccccc1	103
Cc1c(C(=O)N(C)C)sc2[nH]c(=S)n(CCc3ccc(Cl)cc3)c(=O)c12	97
O=C(c1ccc(Oc2cc(Cl)cc(Cl)c2)o1)N1CCCCC1	96
Cc1ccccc1C(=O)Nc1nnc(SCC(=O)Nc2ccc(F)cc2)s1	92
Cc1c(CC(=O)Nc2ccc(Cl)cc2)sc2ccc(Cl)cc12	104
O=C(NC(Nc1cccc(C(F)(F)F)c1)C(=O)c1ccccc1)c1cccs1 (stereo unspecified)	100
c1ccc(COC(CN2CCCC2)CN2CCCC2)cc1	105
NC(=O)c1ccccc1NC(=O)c1cccc(COc2ccc3c(c2)CCC3)c1	101
CCOc1ccccc1-n1c(N)c(C#N)c(N)c(C#N)c1=S	100
O=C1CC(c2ccccc2)CC(O)=C1C=Nc1ccccc1 (stereo unspecified)	100
O=C(O)c1ccc(-c2cnc3ccccc3n2)cc1	100
Cc1ccc2nc(C)nc(-c3ccccc3)c2c1	100
C=CCc1cccc2cc(C(N)=S)c(=N)oc12	103
COc1ccc(OC)c2nc3c(cc12)CCCCC3	101

Brought forward from above: 2 compounds, followed by the next part.
SMILES	Vaccinia pol inh
C=CCc1cccc2cc(C(N)=S)c(=N)oc12	103
COc1ccc(OC)c2nc3c(cc12)CCCCC3	101
O=C(C1CC1(c1ccccc1)c1ccccc1)N1CCCCC1 (stereo unspecified)	100
COc1ccc(CN2C(=O)c3ccccc3C2C(=O)NCCCN2CC(C)CC(C)C2)cc1 (stereo unspecified)	106
CCCCN(CC)C(=O)c1cc2c(-c3ccc(Cl)cc3)nn(C)c2s1	104
CNC(=O)/C(=C\c1ccccc1)NC(=O)c1ccc(Cl)cc1Cl	101
CCc1cc2c(cc1C(=O)c1ccc(I)cc1)OCCO2	100
